S aureus helic – inhibitors of S. aureus replicative helicase, primary screen, biochemical, fluorescence unwinding readout; purified S. aureus helicase, fluorescence unwinding assay; about half of the hits fall short of the stated cut; inhibition, %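 (tested at about 80 µM)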; 0.05% of 120,000 active; AID 485395, 2010;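 active = both duplicates at 50% or more, or one of them with a favoured structure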;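 note: 0% = mean of negative control wells and 100% = mean of positive control wells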
MgrA-DNA mod – S. aureus MgrA activity modulators, primary screen, biochemical, S. aureus Newman, fluorescence polarization; 0.13% of 84,000 active; inhibition, %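 (about 10 µg/mL by stock and volumes)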; MgrA-DNA binding;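 active = above 50% in either of two replicates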;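 note: 0% = protein plus DNA without compound and 100% = DNA alone without protein; higher means less MgrA bound to DNA so lower polarization; one replicate is shown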
Starred values were filed as active, the others as inactive; . = not tested or not shown. Some of the compounds tested (hit frequency here may not be typical).

S aureus helic	MgrA-DNA mod	smiles
-1	0.4	Cc1ccc(C(O)c2cccnc2)o1 (stereo not drawn)
9	.	CC(NC(=O)CCOc1ccccc1)c1ccccc1 (stereo not drawn)
0	1.9	Cc1ccc(NC(=O)CCCC(=O)c2ccccc2)cc1Cl
14	4.4	C=CCOc1ccc(C(=O)N2CCc3ccccc3C2)cc1
1	1.0	Clc1cc2c(cc1Cl)Nc1cc(Cl)c(Cl)cc1N2
8	8.3	Cc1ccc(Nc2c(-c3c[nH]c4ccccc34)nc3c[n+](CC(N)=O)ccn23)cc1
31	.	CC1CCN(C(=O)COC(=O)c2ccccc2O)CC1
0	-0.5	CC(C)C(=O)Nc1ncc(Cc2ccccc2Cl)s1
-21	.	CN1C(=O)C(C)(C)c2cc(S(=O)(=O)N(C)CC(=O)NCc3cccs3)ccc21
1	2.0	Cc1ccc(C2C=C(C34CC5CC(CC(C5)C3)C4)NC(=S)N2)cc1 (stereo not drawn)
.	2.1	CCCCN1C(=O)c2cccc3cc([N+](=O)[O-])cc(c23)C1=O
.	-0.7	CC(C)c1ncc2c(n1)-c1cc(Cl)ccc1SC2
7	3.5	Cc1nn(CC(=O)N2CCCC2)c(C)c1NC(=O)c1cnn2c1NC(c1ccco1)CC2C(F)(F)F (stereo not drawn)
16	4.3	COc1ccc2c(c1)CCC(C)N2C(=O)Nc1ccc(OC)c(OC)c1 (stereo not drawn)
.	-5.7	Cc1cc(C)c2ccc(=O)cc-2o1
0	.	CN(C1CCCCC1)S(=O)(=O)c1ccc(SCC(=O)NC2CC2)nc1
2	.	C=CCNc1nc(C(=O)OCc2nnc(-c3ccc(Br)cc3)o2)cs1
5	.	CCOC(=O)N1CCN(C(=O)c2ccc(/C=C3\Oc4ccccc4NC3=O)cc2)CC1
-15	.	CN(C)S(=O)(=O)c1cccc(CN2CCCc3ccccc32)c1
5	-2.0	O=C(O)C(Br)(Cc1ccccc1)C(=O)O
3	3.1	O=c1cc(CSc2nnc(COc3ccccc3)o2)c2ccccc2[nH]1
-3	2.6	O=C(/C=C/c1cccc(Br)c1)N1CCN(c2ccccc2O)CC1
4	.	O=C(CN1CCc2ccccc2C1)N1N=C(c2ccc(Cl)cc2)CC1c1ccco1 (stereo not drawn)
10	-0.5	CCC(C)C(=O)Nc1cccc(C(=O)O)c1 (stereo not drawn)
3	.	CSc1nnc(NC(=O)Cc2ccccc2)s1
21	.	CCN1CCN(CCCNC(=O)C2c3ccccc3C(=O)N(CCOC)C2c2cn(C)c3ccccc23)CC1 (stereo not drawn)
3	.	Cc1ccc(/C=C2/SC(=O)N(CCC(=O)N3CCN(C)CC3)C2=O)cc1
.	-1.1	c1coc(-c2ccnc3ncnn23)c1
.	5.0	CC(=O)c1sc2nsc(SCCN3CCCC3)c2c1N
11	.	Cc1cc2nc(N3CCN(S(=O)(=O)c4ccccc4)CC3)c3ccccc3n2n1
9	1.5	CCOc1nc(NC(C)(C)CO)nc(OCC)n1
16	-1.0	CC1CCC(NC(=O)C(C)C2Sc3ccccc3N(Cc3cccc(Cl)c3)C2=O)CC1 (stereo not drawn)
4	.	O=C(NC1CCCC1)c1ccc(Br)o1
.	-0.4	COc1cc(C(=O)NN)c(-n2c(C)ccc2C)cc1OC
-8	.	Cc1cc(C)n(-c2ccc(C(=O)OCC(=O)Nc3sc4c(c3C(N)=O)CCC4)cc2)n1
.	-0.3	Cc1cc(S(=O)(=O)Nc2c(C)nn(C)c2C)c(Cl)cc1Cl
17	.	N=c1c2c3c(sc2nc2n1CCCCC2)CCCCC3
-15	-4.0	CC(C)c1ccc(NC(=O)NCC2CCCO2)cc1 (stereo not drawn)
-2	.	COc1ccc(NC(=O)CN=C2NS(=O)(=O)C(c3ccc(F)cc3)=C2C)cc1
3	.	c1ccc(CCc2nn3cnnc3s2)cc1
-11	2.7	N#C/C(C(=O)NCc1ccco1)=C1/SC=C(c2ccccc2)N1c1ccccc1
3	0.6	COC(NC(=O)Nc1nc2ccccc2s1)(C(F)(F)F)C(F)(F)F
0	.	CCN(CC)S(=O)(=O)c1ccc2nc(Cc3ccccc3)[nH]c2c1
13	0.1	COc1ccc(OC)c(N=c2cc(-c3ccc4c(c3)OCO4)oc3ccccc23)c1
28	.	NC(=O)Nc1ccc(C(=O)OCC(=O)NCc2ccccc2)cc1
1	-0.7	CC(Cc1ccccc1)NC(=O)C1CCCNC1=O (stereo not drawn)
12	.	O=C(O)c1cccc(-c2nn[nH]n2)c1
.	0.4	Oc1ccc2ccccc2c1C=NCc1ccccc1
6	-3.5	O=C(O)COCC(=O)Nc1ccccc1-c1ccccc1
8	-3.6	C/C(=N/OCC(=O)Nc1sc2c(c1C#N)CCCC2)c1cccs1

Other entries:
S aureus helic	MgrA-DNA mod	smiles
4	.	CC(C)OC(=O)N(O)c1cccc(Cl)c1
-3	0.3	NN(CCC(=O)N1CCCCC1)C1=NS(=O)(=O)c2ccccc21
67*	6.0	CC(C)Nc1ccc(Nc2ccnc3cc4ccccc4cc23)cc1
.	0.6	O=C(CN1C(=O)c2ccccc2S1(=O)=O)NCc1ccccc1
.	-0.6	Cc1ccc(S(=O)(=O)CCN2CCN(c3ccccn3)CC2)cc1
.	0.6	O=C(Nc1ncc(S(=O)(=O)c2ccc([N+](=O)[O-])cc2)s1)c1ccco1
.	-0.5	Cc1ccc2nc(-c3ccc(NS(=O)(=O)c4cccc5nonc45)cc3)sc2c1
8	.	O=C(NCCc1ccccc1)c1noc2c1CCCC2
8	.	Cc1ccc(/C=c2/sc3nc(=O)cnn3c2=O)cc1
9	3.1	O=C(Nc1nncs1)C1c2ccccc2Oc2ccccc21
.	0.0	Cc1c(C)c(C)c(C(=O)CCCC(=O)O)c(C)c1C
.	1.9	CCOC(=O)N/N=C/c1ccc(Cl)cc1
-5	.	Cc1ccc2nc(N3CCN(C=O)CC3)nc(-c3ccccc3)c2c1
15	.	O=c1cc(N2CCc3ccccc32)[nH]c(=O)n1Cc1ccc(F)cc1
-15	.	Cn1c(C(=O)O)c(CNC2CCCCC2)c2ccccc21
.	-0.6	O=c1[nH]cnc2c1ncn2[C@@H]1C[C@@H](O)[C@H](CO)O1
8	-0.2	CC1(C)Cc2c(c3ccccc3n2-c2ccccc2)C(C)(C)N1
.	-1.1	CCCS(=O)(=O)/C(C#N)=C/c1sccc1Oc1ccccc1
-12	2.5	O=C(NS(=O)(=O)c1ccc(N=NN2CCOCC2)cc1)C12CC3CC(CC(C3)C1)C2
-23	.	N#C/C(=C\c1cccnc1)C(=O)OCc1ccccc1
10	.	Cc1ccc(S(=O)(=O)N2C(=O)CCC2C(=O)NCCOc2ccccc2C)cc1 (stereo not drawn)
.	-1.6	CCOc1ccc(/C=C(\C#N)c2cccc(Cl)c2)cc1
12	-1.5	CSc1cccc(NC(=O)CN(C)S(=O)(=O)c2cnc[nH]2)c1
13	.	C=CCc1cccc(C2Nc3ccccc3C(=O)N2O)c1O (stereo not drawn)
.	-0.1	O=C(Nc1cccs1)Nc1nnc(C2CC2)s1
.	0.8	COc1cc2c(cc1OC)C(C)N(C(=O)Nc1ccccc1)CC2 (stereo not drawn)
13	-0.6	COC(=O)c1ccc(COc2ccc(C3OC(C)CC(C)(C)O3)cc2OC)cc1 (stereo not drawn)
.	-0.1	Cc1ccc(SCCNC(=O)c2cccnc2Oc2ccccc2)cc1
18	.	CSc1nc2c(c(C(F)(F)F)n1)CC(C)CC2 (stereo not drawn)
6	.	Clc1c(C=NCc2ccco2)sc2ccccc12
-14	.	CCC(=O)Nc1ccc(-c2nc3ccc(C)cc3s2)cc1
12	-3.2	Cc1[nH]c2ccc(C(=O)O)cc2c1C(C)C
-41	.	COc1ccc(Cn2c(O)c(/C=N/Nc3nc(C)cc(=O)[nH]3)c3ccccc3c2=O)cc1
.	3.2	CCCCSc1nnc2c(n1)OC(/C=C/c1ccco1)Nc1ccccc1-2 (stereo not drawn)
.	13	COC(=O)/C=C1\SC(c2ccccc2)=NC1=O
-5	-2.9	O=C1Cc2cc(C(=O)CSc3nnc(-c4ccccn4)c(-c4ccccn4)n3)ccc2N1
11	.	Cn1cc(CC(=O)Nc2ccccc2)c2ccccc21
-14	.	CCNc1nc2cc(C)nn2c2ccccc12
4	.	O=C1CSC(c2cn(-c3ccccc3)nc2-c2ccccc2)N1CCCN1CCOCC1 (stereo not drawn)
-3	.	CC(C)C(NC(=O)Cc1n[nH]c(=O)c2ccccc12)c1ccc2c(c1)OCCCO2 (stereo not drawn)
-8	.	CCCCOc1ccc(C(=O)NO)cc1OC
12	.	CC1CCCCN1Cc1ccc(-c2nn[nH]n2)cc1 (stereo not drawn)
5	.	Cc1nc2ccc(Br)cc2c(-c2ccccc2)c1C(=O)O
-3	0.0	O=C(CSc1nc(O)cc(=O)[nH]1)Nc1ccccc1
15	.	O=C1CCN(C(C(=O)Nc2ccc(F)cc2)c2ccccc2)CC1 (stereo not drawn)
6	.	Cc1noc(C)c1COC(=O)C(c1ccccc1)c1ccccc1
.	1.9	O=C(OCCNc1ccc([N+](=O)[O-])cn1)c1ccc([N+](=O)[O-])o1
31	.	CN1C(=O)C(O)(c2sc(N)nc2-c2ccccc2)c2ccccc21 (stereo not drawn)
6	.	CN(C)CCOC(=O)C12CC3CCC(CC(C3)C1)C2
14	.	C=CCSC1=C(C#N)C(C)(C)C(C#N)C(=O)N1 (stereo not drawn)

One compound at a time (already shown). Values in the order: S aureus helic | MgrA-DNA mod
`O=C1CCN(C(C(=O)Nc2ccc(F)cc2)c2ccccc2)CC1` (stereo not drawn) is listed with 15 | .
`CN(C)CCOC(=O)C12CC3CCC(CC(C3)C1)C2` is listed with 6 | .

Going on with the list:
S aureus helic	MgrA-DNA mod	smiles
-3	.	CCCCN1C(=S)NS(=O)(=O)c2ccccc21
-3	.	CN(C)S(=O)(=O)c1cccc(C(=O)OCCN2C(=O)c3ccccc3C2=O)c1
8	.	CCN1CCCC1CNC(=O)Cn1ncc2c3ccccc3n(Cc3ccc(F)cc3)c2c1=O (stereo not drawn)
8	-0.1	Cc1cccc2cc(C#N)c(SCC#N)nc12
-1	1.2	COC(=O)c1ccc2c(=O)n(-c3ccc(F)c(Cl)c3)c(SCC(=O)C(C)(C)C)nc2c1
0	.	Cc1ccc2cc3cc(C(=O)NCc4ccc(F)cc4)oc3nc2c1
-13	.	CC(C)N(CC(N)=O)C(=O)COc1ccccc1Cc1ccccc1
-11	.	O=C(CCNC(=O)c1ccco1)NC12CC3CC(CC(C3)C1)C2
-20	2.5	CCS(=O)(=O)N(C)c1ccc(C(N)=O)cc1
-6	-0.2	COC(=O)c1ccc(NC(=O)C(c2ccccc2)c2ccccc2)cc1
11	.	NNC(=O)Cn1nc2n(c1=O)-c1ccccc1SC2
7	.	CC1CC(C)CN(C(=O)CSc2nnc(COc3ccc(Cl)cc3)o2)C1 (stereo not drawn)
1	.	CSc1nc(S(=O)(=O)c2ccc(C)cc2)c(N2CCOCC2)s1
-19	.	Cc1ccc(-c2csc(/C(C#N)=C/Nc3ccccc3)n2)cc1C
6	-1.2	CN1CCc2c(n(CC(O)CN3CCCC3)c3ccccc23)C1=O (stereo not drawn)
5	1.9	O=C(Nc1ccccc1)C(F)(F)F
30	.	COc1cccc(-c2nc3c(c(SC)n2)Cc2c(CO)cnc(C)c2O3)c1
-8	.	Cc1nc2c3ccccc3ncn2n1
.	1.6	COC(=O)c1cccc(NC(=O)NCc2ccccc2)c1
2	0.1	O=C(CSC1CCCC1)c1cccs1

17 compounds out of the list, arranged by molecular weight, smallest number first.
S aureus helic	MgrA-DNA mod	smiles
-8	.	Cc1nc2c3ccccc3ncn2n1
5	1.9	O=C(Nc1ccccc1)C(F)(F)F
2	0.1	O=C(CSC1CCCC1)c1cccs1
-20	2.5	CCS(=O)(=O)N(C)c1ccc(C(N)=O)cc1
-3	.	CCCCN1C(=S)NS(=O)(=O)c2ccccc21
11	.	NNC(=O)Cn1nc2n(c1=O)-c1ccccc1SC2
.	1.6	COC(=O)c1cccc(NC(=O)NCc2ccccc2)c1
-11	.	O=C(CCNC(=O)c1ccco1)NC12CC3CC(CC(C3)C1)C2
6	-1.2	CN1CCc2c(n(CC(O)CN3CCCC3)c3ccccc23)C1=O (stereo not drawn)
-19	.	Cc1ccc(-c2csc(/C(C#N)=C/Nc3ccccc3)n2)cc1C
-13	.	CC(C)N(CC(N)=O)C(=O)COc1ccccc1Cc1ccccc1
-6	-0.2	COC(=O)c1ccc(NC(=O)C(c2ccccc2)c2ccccc2)cc1
1	.	CSc1nc(S(=O)(=O)c2ccc(C)cc2)c(N2CCOCC2)s1
30	.	COc1cccc(-c2nc3c(c(SC)n2)Cc2c(CO)cnc(C)c2O3)c1
7	.	CC1CC(C)CN(C(=O)CSc2nnc(COc3ccc(Cl)cc3)o2)C1 (stereo not drawn)
-3	.	CN(C)S(=O)(=O)c1cccc(C(=O)OCCN2C(=O)c3ccccc3C2=O)c1
8	.	CCN1CCCC1CNC(=O)Cn1ncc2c3ccccc3n(Cc3ccc(F)cc3)c2c1=O (stereo not drawn)

(list continues)
S aureus helic	MgrA-DNA mod	smiles
3	.	CCCN1C(=O)C(NC(C)=O)c2cc(F)ccc21 (stereo not drawn)
4	-0.9	CC(C)Oc1ccc(C(=O)O)cc1
.	0.7	CN(C)C(=O)c1ccc2ncsc2c1
.	-0.8	O=S(=O)(CS(=O)(=O)N1CCOCC1)N1CCOCC1
5	.	CCc1nc2sccc2c(=O)[nH]1
29	.	O=C(CN1C(=O)/C(=C/c2ccccc2F)Oc2ccccc21)N1CCOCC1
-2	.	Nn1c(SCc2cc(=O)oc3cc4c(cc23)CCC4)nnc1-c1cccnc1
-12	3.2	CC(C)Cc1csc(NC(=O)/C=C/c2ccccc2)c1C(=O)O
13	.	CCn1c(C(=O)N2CCCC(C(=O)NC(C)C34CC5CC(CC(C5)C3)C4)C2)cc2sccc21 (stereo not drawn)
9	4.3	Cc1cc(C=C2C(=O)OC(C)(C)OC2=O)c(C)n1-c1ccc(I)cc1

Screening data as filed in PubChem.
